# From PubChem
# VDR inhibitor: vitamin D3 receptor (human) inhibition | Potency, µM, for inactives: max response, negative = inhibition, most hits filed as inhibitors | VDR-SRC2-3 peptide fluorescence polarization, 2 h | P11473 | 400,000 tested, 0.93% active; active means well fitted inhibition curve with a large enough effect; inconclusive means small, poorly fitted or top-dose-only effect, or another doubt; inactive means no such curve, though single readings can be large or run the other way; further: series mostly up to about 120 µM
# Target sequence (P11473 whole entry, looked up): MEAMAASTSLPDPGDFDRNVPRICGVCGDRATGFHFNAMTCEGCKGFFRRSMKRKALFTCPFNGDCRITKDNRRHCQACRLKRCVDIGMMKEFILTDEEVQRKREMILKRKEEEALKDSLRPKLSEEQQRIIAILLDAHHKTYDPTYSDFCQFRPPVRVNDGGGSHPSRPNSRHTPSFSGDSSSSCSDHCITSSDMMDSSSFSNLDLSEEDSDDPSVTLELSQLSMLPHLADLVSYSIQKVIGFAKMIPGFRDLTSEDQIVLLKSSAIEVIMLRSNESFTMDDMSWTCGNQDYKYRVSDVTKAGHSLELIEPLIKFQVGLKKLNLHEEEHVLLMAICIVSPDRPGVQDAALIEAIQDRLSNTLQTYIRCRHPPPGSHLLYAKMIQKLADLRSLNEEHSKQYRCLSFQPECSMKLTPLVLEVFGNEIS
#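 Inhibition of the VDR/SRC2-3 peptide interaction is quantified by fluorescence polarization. Compounds (23 nl, pintool) incubate with the reagents for 2 hours at ambient room temperature.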
# Starred values were filed as active, the others as inactive; ? = inconclusive; [ ] = remark or other dose. On the % scale 0 is the no-effect control and ±100 the full control effect; potency means the concentration at half of the fitted maximal effect. Some of the compounds tested (hit frequency here may not be typical).
SMILES,VDR inhibitor
CC[C@H](CC[C@@H](C)C1CC[C@H]2[C@@H]3CC=C4C[C@@H](O)CC[C@]4(C)[C@H]3CC[C@]12C)C(C)C (some centres undefined),4%
CN(CCO)S(=O)(=O)c1ccc2c(c1)C(=NN)c1cc(S(=O)(=O)N(C)CCO)ccc1-2,-8%
COc1ccccc1-c1sc2ccccc2c1-c1ccc(O)cc1,-3%
Cc1cc(C)n(S(=O)(=O)/C=C/c2ccccc2)n1,4%
COc1cc(OC)cc(C(=O)NCCCn2ccnc2)c1,-4%
COc1ccc(C(=O)NC(C)c2nc3ccccc3[nH]2)cc1OC (centres undefined),15%
NC(=O)c1ccc(NC(=O)Cn2c(=O)n(-c3ccccc3)c(=O)c3oc4ccccc4c32)cc1,12%
O=C(NCCCN1CCc2ccccc2C1)Nc1ccc(Br)cc1,?
Cc1ccc(C)c2[nH]c(=O)c(CN(CCN3CCCC3)C(=O)Nc3ccc(F)cc3)cc12,-13%
CC(=O)OCC(=O)[C@@]1(O)CCC2C3CCC4=CC(=O)CC[C@]4(C)C3C(=O)C[C@]21C (some centres undefined),-10%
NC(=O)CC(NC(=O)c1ccccc1)c1ccc(N2CCN(c3ccccc3)CC2)c([N+](=O)[O-])c1 (centres undefined),-9%
CN1CCN(S(=O)(=O)c2cccc(C(=O)N(c3ccccn3)C3CCCCC3)c2)CC1,-1%
C=CCN(CC(=O)c1sc(C(=O)OCC)nc1C)c1cccc(Br)c1,4%
COC(=O)c1ccc(C(C2C(=O)CC(C)(C)CC2=O)C2C(=O)CC(C)(C)CC2=O)cc1,?
C/C(CC(=O)NCc1ccco1)=N\NC(=O)Cc1ccccc1,8%
Cc1cc(C)cc(NC(=O)c2cn3c4c(ccc(Cl)c4c2=O)OC(C)C3)c1 (centres undefined),23%
Cc1noc(C)c1CSCC(=O)N1CCN(c2ccc(F)cc2)CC1,-24%
O=C(NC1=NCCS1)c1sc2ccccc2c1Cl,13%
Cc1ccc(OCCCCN2CCCCC2)cc1,-17%
COc1ccccc1Nc1nnc(SCc2cc(=O)n3cc(C)ccc3n2)s1,6%
Cc1ccc(-c2cc(C(=O)N3CCCCCC3)no2)cc1,-1%
CN(c1ccccc1)S(=O)(=O)c1ccc(C(=O)Nc2ncccc2O)cc1,-3%
CCOC(=O)C1=NOC(CNC(=O)c2c(-c3ccccc3Cl)noc2C)C1 (centres undefined),5%
Cc1c(Cl)cccc1NC(=O)c1cc2nc(-c3ccc4c(c3)OCO4)cc(C(F)(F)F)n2n1,-26%
N#Cc1cc(N)c(Nc2ccccc2)cc1C#N,26%
COc1ccc(/C=N\NC(=O)CNC(=O)C(c2ccccc2)c2ccccc2)cc1[N+](=O)[O-],-5%
Cc1ccc(C2c3sc(=O)[nH]c3SC3C(=O)NC(=O)C32)cc1 (centres undefined),3%
CNC(=O)NC(=O)CSc1nc(-c2cccs2)c(C#N)c(=O)[nH]1,0%
CCCN1Cc2cccc(C(=O)Nc3ccc(CN4CCCC4)cc3)c2C1=O,-4%
O=C(CCCc1ccccc1)Nc1ccc(Br)cc1F,22µM*
CCN(CC)CCNC(=O)c1ccc2c(=O)n3nc(Nc4ccccc4)sc3nc2c1,4%
CCS(=O)(=O)N1CCc2cc(C(=O)Nc3ccc(OC)cc3OC)ccc21,23%
CCOC(=O)NC(=O)CSc1nc2ccc(OCC)cc2[nH]1,-1%
COc1cc(CC(=O)OCC(=O)NC2CCCCC2)cc(OC)c1OC,-4%
Cc1nc2ccc(N3C(=O)CCC3=O)cc2[nH]1,6%
O=C(N=Nc1c(O)[nH]c2ccc([N+](=O)[O-])cc12)c1ccccc1Cl,-22%
COC(=O)c1ccc(OCC(O)CN2C(=O)NC(C)(C)C2=O)cc1 (centres undefined),-10%
O=C(COc1ccc(Cl)cc1)NCC(c1ccco1)S(=O)(=O)c1ccc(Cl)cc1 (centres undefined),7%
Cc1ccc(C)c(NC(=O)c2ccc3c(c2)CCCN3S(C)(=O)=O)c1,7%
O=[N+]([O-])c1cc(-c2n[nH]c(-c3ccccc3)n2)cc([N+](=O)[O-])c1,-4%
CC(=O)C1=C(O)C(=O)N(CCC(=O)O)C1c1ccccc1[N+](=O)[O-] (centres undefined),6%
COc1cccc(OC)c1/C(O)=C(\C#N)c1nc2ccccc2[nH]1,30%
O=C(Cn1c(=O)nc(-c2ccccc2F)c2cc(Cl)ccc21)N1CCN(c2ccccc2F)CC1,-4%
CCOc1ccc(-c2cc(OC(=O)c3ccc(OC)cc3)c3c(C)oc(C)c3c(=O)c2)cc1,?
O=C(CN1C(=O)NC(Cc2c[nH]c3ccccc23)C1=O)Nc1cccc(S(=O)(=O)N2CCOCC2)c1 (centres undefined),-7%
CCN(Cc1ccccc1)C(=O)C(CC(C)C)NS(=O)(=O)c1ccc2c(c1)CCN2C(C)=O (centres undefined),6%
CCCCN(CCCC)C1=C(C(=O)c2ccccc2)N(CC)S(=O)(=O)c2ccccc21,1%
CCOC(=O)c1c(C)n(OCc2ccccc2)c2ccc3c(no[n+]3[O-])c12,-4%
O=C(c1ccccc1)N1CCN(c2ccc([N+](=O)[O-])c(NCc3cccnc3)c2)CC1,-5%
CCN(C(=O)COC(=O)c1ccc2c(c1)OCO2)c1ccc(F)cc1,-7%
Cc1ccc(C(=O)/C=C/c2ccc3c(c2)OCO3)o1,?
CC(C)c1nc(SCC(=O)Nc2ccc3c(c2)OCO3)n[nH]1,15%
O=C1CCN(Cc2ccccc2)S(=O)(=O)c2ccc(C(F)(F)F)cc21,-4%
CCOc1ccc(C(=O)Nc2ccc3c(c2)C(=O)NC3=O)cc1,-2%
CNS(=O)(=O)c1cccc(C(=O)Nc2cccnc2)c1,-6%
Cc1ccc(S(=O)(=O)N2CCOC2CNC(=O)C(=O)NCCc2ccccc2)cc1 (centres undefined),6%
CCN(CC)S(=O)(=O)c1ccc2c(c1)nc(CCC(=O)Nc1ccc3c(c1)OCO3)n2C,-3%
O=C(NCC(c1ccc2c(c1)OCO2)N1CCN(c2ccccc2)CC1)C(=O)Nc1cccc(F)c1 (centres undefined),-1%
COc1cccc(CC(=O)N2CCCC(CO)(Cc3ccc(F)cc3F)C2)c1 (centres undefined),-10%
Cc1ccc(-c2noc(CNC(=O)COc3ccccc3C)n2)cc1,-5%
# Additional compounds follow:
SMILES,VDR inhibitor
O=C(Cn1cnc(Cl)c1Cl)c1ccccc1,-15%
CCOc1ccc(-n2c(C)c(C(C)=O)c3cc(O)ccc32)cc1,-5%
C=C1C(=O)[C@@]23[C@H](O)C[C@@H]4C(C)(C)CC[C@H](O)[C@@]4(C)[C@@H]2CC[C@@H]1[C@H]3O,?
O=C(NCc1ccncc1)c1cccc(S(=O)(=O)Nc2ccc(SC(F)F)cc2)c1,-19%
COc1ccc(CNCCS(=O)(=O)NCc2ccc(OC)cc2)cc1,6%
Cc1nn(-c2ccccc2)c(/N=C/c2ccc(O)cc2)c1-c1ccccc1,-8%
CCCCOC(=O)C1=C(C)NC(=O)NC1c1cccc([N+](=O)[O-])c1 (centres undefined),-4%
N#CCCn1cc(C(=O)N2CCOCC2)c(-c2ccc3c(c2)OCCO3)n1,21%
CCCCn1c(=O)nc2n(-c3ccc(OC)cc3)c3ccccc3cc-2c1=O,2%
COC(=O)c1cc(-c2cccs2)[nH]n1,-16%
CN(CCCC(=O)NC1CC(C)(C)NC(C)(C)C1)S(=O)(=O)c1ccc([N+](=O)[O-])cc1,-19%
COc1ccc2c(c1)C(=NNc1ccc(C(=O)O)cc1)c1cc(OC)ccc1-2,-10%
Cc1cccc(C(=O)Nc2nsc(N)n2)c1,-27%
CCc1nn2c(=O)cc(COC(=O)c3cccc(NC(=O)COc4ccccc4)c3)nc2s1,10%
COc1ccc(C)cc1-n1nnnc1SCn1nnc2ccccc2c1=O,-14%
COC(=O)Cc1nnc(SCC(=O)Nc2ccccc2)c2ccccc12,79µM*
CCN(CC)C(=O)c1[nH]cnc1C(=O)Nc1cccc(C)c1,?
CCOC(=O)/C(N=Nc1cc(C(=O)O)cc(C(=O)O)c1)=C(\O)CCl,19%
COc1ccc(Nc2nc(N3CCCCC3)nc3ccccc23)c(OC)c1,3%
COc1ccc(C)cc1NC(=S)NNC(=O)c1c(Br)cnn1C,-21%

# 3 of the entries above in order of their number in VDR inhibitor, largest number first:
SMILES,VDR inhibitor
N#CCCn1cc(C(=O)N2CCOCC2)c(-c2ccc3c(c2)OCCO3)n1,21%
COc1ccc(Nc2nc(N3CCCCC3)nc3ccccc23)c(OC)c1,3%
CN(CCCC(=O)NC1CC(C)(C)NC(C)(C)C1)S(=O)(=O)c1ccc([N+](=O)[O-])cc1,-19%

# Six structures from above, sorted by count of non-hydrogen atoms, descending:
SMILES,VDR inhibitor
CC[C@H](CC[C@@H](C)C1CC[C@H]2[C@@H]3CC=C4C[C@@H](O)CC[C@]4(C)[C@H]3CC[C@]12C)C(C)C (some centres undefined),4%
CCCCn1c(=O)nc2n(-c3ccc(OC)cc3)c3ccccc3cc-2c1=O,2%
CN(c1ccccc1)S(=O)(=O)c1ccc(C(=O)Nc2ncccc2O)cc1,-3%
COc1cc(CC(=O)OCC(=O)NC2CCCCC2)cc(OC)c1OC,-4%
O=C1CCN(Cc2ccccc2)S(=O)(=O)c2ccc(C(F)(F)F)cc21,-4%
CCOc1ccc(C(=O)Nc2ccc3c(c2)C(=O)NC3=O)cc1,-2%

# Next part:
SMILES,VDR inhibitor
Cc1nc2c(C)cccc2cc1C(=O)N/N=C/c1cccc([N+](=O)[O-])c1,-3%
CC(C)(C)c1csc(NC(=O)Cc2ccc(S(=O)(=O)N3CCOCC3)s2)n1,-4%
COc1ccc(-c2nc3c4ccccc4ccn3c2CN2CCCCC2)cc1,-9%
Cc1cc(C)nc(NS(=O)(=O)c2ccc(NC(=O)c3cccc(N4C(=O)CCC4=O)c3)cc2)n1,-4%
CC(C)(C)NCCOCCOc1ccc(Cl)cc1C(C)(C)C,-4%
COc1ccc(NS(=O)(=O)c2ccc(S(=O)(=O)N(C)C)cc2)cc1S(N)(=O)=O,2%
COc1ccc2cc(CN(CCc3ccccc3)Cc3nnnn3CC3CCCO3)c(=O)[nH]c2c1 (centres undefined),-3%
CC(=O)Nc1sc2c(c1C(c1cccc(F)c1)N1CCN(CCO)CC1)CCCC2 (centres undefined),-19%
COc1ccc(NC(=O)OCCn2c([N+](=O)[O-])cnc2C)cc1,-10%
Cc1ccc(C(=O)N2CCc3cc4c(cc3C2C)OCCCO4)cc1 (centres undefined),-5%
CC(=O)Nc1ccccc1-c1nc2ccccc2n(CC(=O)Nc2ccc(C)c(Cl)c2)c1=O,12%
CCOC(=O)c1ccc(NC(=O)CN2CCN(Cc3ccccc3)CC2)cc1,-5%
CC(=O)Nc1nnc(SCC(=O)c2ccc3c(c2)Cc2ccccc2-3)s1,11%
O=c1c(-c2ccc(F)cc2)coc2c3c(ccc12)OCCO3,3%
CCOC(=O)Oc1ccc2c(=O)c(Oc3cc(C)cc(C)c3)coc2c1,71%[activator]
O=C1C=C(c2ccc(Cl)c(C(F)(F)F)c2)C[C@@H](c2ccc(F)cc2)C1,5%
N#CCC(=N)N1CCN(c2ccccc2)CC1,-7%
Brc1ccc(Nc2c3c(nc4nncn24)CCC3)cc1,-4%
COc1ccc(N2CCN(C(=O)c3nc(SC)ncc3Cl)CC2)cc1,10%
O=c1c2c3c(sc2ncn1/N=C/c1ccccc1)CCCC3,20%
NC(=O)COC(=O)c1ccc2c(c1)S(=O)(=O)c1ccccc1C2=O,-10%
Cc1cc(C(=O)NCC(=O)Nc2c(C)cccc2C)c2ccccc2n1,-21%
O=C(Nc1ccc(N2CCCCC2)cc1)c1ccccn1,6%
CCOc1ccccc1N=C1SC(CC(=O)Nc2ccc(OC)cc2OC)C(=O)N1CCC1=CCCCC1 (centres undefined),17%
N#Cc1cccc(C#N)c1N1CCC(C#N)CC1,4%
CC(C)CCn1c(CN(C)Cc2ccccc2)nc2c1c(=O)n(C)c(=O)n2C,-3%
O=C(NC1CC1)C1=C[C@H](c2coc3ccccc3c2=O)C[C@H](OCCCCO)O1,-16%
Cc1cc(N2CCC(C(=O)NC3CCCCC3)CC2)nc(-c2ccccc2)n1,-2%
COC(=O)c1ccc(C23CC4(C2)[C@H](CN(Cc2cccnc2)[C@@H]4c2ccccc2)C3c2ccccc2)cc1 (some centres undefined),-17%
COc1ccccc1NC(=O)C(C)OC(=O)CCNS(=O)(=O)c1ccc(C)c(C)c1 (centres undefined),8%
CC(C)ON(C(C(=O)NO)C(C)C)S(=O)(=O)c1ccc(-c2ccccc2)cc1 (centres undefined),-4%
O=c1ccc(-c2ccc(S(=O)(=O)N3CCN(c4ccccc4)CC3)o2)n[nH]1,16%
CCc1cc(=O)n2[nH]c(C)c(-c3ccc(OC)cc3)c2n1,-20%
COc1cc(NC(=O)CSc2nc(C)c(C)c(C)n2)cc(OC)c1,-13%
CCCCCCC(=O)Nc1ccc(C(=O)N/N=C/c2cccnc2)cc1,-3%
NS(=O)(=O)c1ccc(CCNC(=O)C2CCCN2C(=O)OCc2ccccc2)cc1 (centres undefined),-6%
CCn1c(N2CCN(CC(=O)c3ccc(OC)cc3)CC2)nc2ccccc21,14%
Cc1ccccc1SCC(=O)Nc1cccc(C#N)c1,-1%
Cc1cccc(C)c1NC(=O)N1C2CCCC1CC(NC(=O)C(C)(C)C)C2 (centres undefined),21%
Cn1ncc(N2CCN(S(=O)(=O)c3ccc(Br)cc3)CC2)c(Cl)c1=O,14%
CCN(CC)c1cc(C)c2cc(NC(=O)c3ccccc3Cl)ccc2n1,1%
O=C(NNC(=O)c1cc2ccccc2[nH]1)OCc1ccccc1,15%

# 4 of the compounds above, field by field:
> CCc1nn2c(=O)cc(COC(=O)c3cccc(NC(=O)COc4ccccc4)c3)nc2s1
  VDR inhibitor: 10%
> COc1ccc(C)cc1-n1nnnc1SCn1nnc2ccccc2c1=O
  VDR inhibitor: -14%
> COC(=O)Cc1nnc(SCC(=O)Nc2ccccc2)c2ccccc12
  VDR inhibitor: 79µM*
> CCN(CC)C(=O)c1[nH]cnc1C(=O)Nc1cccc(C)c1
  VDR inhibitor: ?
